Assay outcomes deposited in PubChem by several laboratories.
RecA splice inh: Mtb RecA intein splicing inhibitors, primary screen, biochemical, fluorescence, HTS; actives 0.75% (n = 290,000); inhibition, %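 (about 9 µM by stock and volumes)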; cell-free RecA intein splicing; in the data active = inhibition above about 30%; inconclusive = no clear call, values can overlap the other calls;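 also: 0% = vehicle wells and 100% = reference inhibitor control wells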
Target sequence (P9WHJ3 whole entry, looked up, canonical isoform): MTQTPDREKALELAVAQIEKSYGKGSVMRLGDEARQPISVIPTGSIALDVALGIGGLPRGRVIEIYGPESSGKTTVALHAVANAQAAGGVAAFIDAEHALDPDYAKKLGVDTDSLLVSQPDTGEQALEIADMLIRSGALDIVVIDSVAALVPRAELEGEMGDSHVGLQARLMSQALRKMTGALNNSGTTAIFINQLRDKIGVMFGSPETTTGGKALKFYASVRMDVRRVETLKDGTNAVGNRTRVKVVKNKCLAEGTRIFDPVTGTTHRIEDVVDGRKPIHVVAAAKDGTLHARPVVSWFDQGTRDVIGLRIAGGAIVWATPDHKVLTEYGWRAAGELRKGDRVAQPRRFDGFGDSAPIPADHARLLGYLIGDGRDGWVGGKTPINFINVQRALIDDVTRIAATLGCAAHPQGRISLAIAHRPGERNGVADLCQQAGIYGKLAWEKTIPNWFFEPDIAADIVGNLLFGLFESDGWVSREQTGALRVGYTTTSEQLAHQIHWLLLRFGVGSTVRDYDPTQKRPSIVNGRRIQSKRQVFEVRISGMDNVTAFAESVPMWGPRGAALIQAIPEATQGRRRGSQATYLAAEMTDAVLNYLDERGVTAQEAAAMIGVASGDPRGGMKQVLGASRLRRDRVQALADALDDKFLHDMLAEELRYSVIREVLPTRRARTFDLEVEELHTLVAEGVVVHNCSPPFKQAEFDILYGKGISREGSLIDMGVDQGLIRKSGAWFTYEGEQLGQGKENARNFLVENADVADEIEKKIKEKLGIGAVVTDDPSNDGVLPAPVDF
Arbovirus inh: antivirals against arbovirus infection, primary screen, cell-based, full library, 10K replicate subset. arbovirus infection cell-based antiviral screen. inhibition, % at 10 µM. actives 0.37% (n = 200,000). AID 1251, 2008;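 active = inhibition from about 30%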;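 also: bluetongue infection of BSR cells; cell survival read as ATP light after 72 h; 0% = infected wells without compound and 100% = uninfected wells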
Mtb growth: M. tuberculosis H37Rv growth inhibitors, H37Rv strain (AID 1626) | M. tuberculosis H37Rv growth inhibition; higher % means a stronger effect | actives 0.95% (n = 220,000) | inhibition, % at 10 µM; hits with a dose series show IC50 in µM;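 active = confirmed in a dose series; inconclusive = inhibition above 80% but not taken into the dose series; inactive = below 80% or under 30% at every dose of the series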;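 also: bacteria incubated seven days before Alamar blue readout; 0% = bacteria only wells and 100% = bacteria with antibiotic wells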
YopH inh: YopH tyrosine phosphatase inhibitors, primary screen, biochemical, fluorescence Ex485/Em525; inhibition, %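 (about 10 µM by stock and volumes)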; actives 0.16% (n = 140,000); AID 898, 2007;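 active = inhibition of 50% or more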;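 also: controls were vehicle for no effect and minimum signal wells for full effect; inactives centre near -20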
Mtb bLac sens: beta-lactam sensitization of Mtb H37Rv, H37Rv. inhibition, % at 25 µM. actives 0.27% (n = 330,000). M. tuberculosis H37Rv growth with meropenem, percent inhibition; hits of this screen are not shown here;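 active = about 74% or more and at least 40 points above the plate without the antibiotic, then above 30% in a dose series; inconclusive = first-round hits that could not be retested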;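 also: growth measured after seven days incubation then overnight dye step; 0% = bacteria only wells and 100% = bacteria with antibiotic; twin plates without the antibiotic show which effects depend on it; some results filed as inactive read as strong as hits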
Arbovirus inh repeat: further read-out of Arbovirus inh, marked with its call; inhibition, %; measured here: 10K subset replicate screen; many hits read low in the repeat;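 first of two repeat runs on a subset; 0% = infected and 100% = uninfected wells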
* hit, by the source's call; u = inconclusive; x = no result given.

SMILES	RecA splice inh	Arbovirus inh	Mtb growth	YopH inh	Mtb bLac sens	others
COc1ccc(NC(=O)NNC(=O)C(O)(c2ccccc2)c2ccccc2)cc1	0.4	x	x	x	0
COc1ccc2c(c1)c(C(=O)N/N=C/c1ccc(Cl)cc1)c(C)n2C	4.3	x	0%	x	-1
CN(C)S(=O)(=O)Nc1ccc(C(=O)O)cc1	5.8	6	-4%	-37	u
O=C1CCCN1CCCNc1ncnc2sccc12	-2.8	3	2%	x	3
CC1CCCC(C)N1C(=O)CSc1nnnn1Cc1ccccc1 (centres undefined)	1.0	1	-11%	-44	-4
C=CCSc1nnc2c(n1)OC(c1cccnc1)Nc1ccccc1-2 (centres undefined)	-1.7	2	-3%	-39	8	Arbovirus inh repeat=1
COc1cc(/C=N/N=C(/N)c2nonc2N)cc(Br)c1OCc1ccccc1C	1.1	-9	14%	0	78
CC(NC(=O)C(C)(C)C)c1nc2ccccc2n1C (centres undefined)	-3.7	7	0%	-33	-1	Arbovirus inh repeat=6
Cc1[nH]nc2cn[nH]c12	8.1	16	2%	-27	-21
CCc1nc(N2CCCC2)c(C#N)c2c1CCCC2	11	19	8%	16	41
Cc1ccccc1NS(=O)(=O)c1ccc(OCC(=O)N2CCCC2)cc1	-1.7	5	-1%	-7	-6
Cc1onc(-c2ccccc2)c1C(=O)Nc1ccc(N2CCOCC2)cc1	5.5	-4	-8%	-19	1
O=C(NCC(c1ccco1)N1CCOCC1)c1c(F)cccc1F (centres undefined)	2.7	x	x	x	-7
COc1ccccc1Nc1nnc(SCC(=O)Nc2nc(-c3ccc(F)cc3)cs2)s1	1.6	-12	55%	x	0
CC(C)c1ccc(-n2c(-c3ccccc3)c[n+]3c2CCc2ccccc2-3)cc1	5.1	-23	14%	x	x
COc1ccccc1N1CCN(C(=O)CCc2nnc3ccc(N4CCOCC4)nn23)CC1	-3.1	x	x	x	2
O=[N+]([O-])c1ccc2nc(-c3ccccn3)[nH]c2c1	0.6	x	12%	x	51
Nc1cccc(C(=O)OCC(=O)Nc2cccc3c2C(=O)c2ccccc2C3=O)c1	2.7	18	-4%	-29	4
CN(Cc1c(O)ccc2c1oc(=O)c1ccccc12)C1CCCCC1	-4.1	6	-1%	-1	u
O=C(NCCCn1ccnc1)c1ccc(Br)c(S(=O)(=O)N2CCOCC2)c1	-3.9	1	-10%	-154	6
C/C(=C\C(=S)Nc1ccccc1)Nc1ccccc1	-0.7	-4	5%	-10	-6
COc1cccc(C(=O)Nc2cccc(OCC(=O)c3ccccc3)c2)c1	0.0	-2	5%	x	-2
CCCCOCCCn1cnc2c([nH]c3cc(OC)ccc32)c1=O	-0.4	2	-3%	-37	5
CCCCCCCN1N=C(C)C(C(=O)c2ccccc2)C1=O (centres undefined)	6.3	1	x	-18	17
O=C(CN1C(=O)CN=C(c2ccccc2Cl)c2cc(Cl)ccc21)NCc1ccco1	0.8	6	-10%	-42	-18
CCOC(=O)CSc1nnc(NC(=O)c2cccc(S(=O)(=O)N3CCCCCC3)c2)s1	-0.2	5	-5%	-1	33
CN1CCC(OC(=O)c2cc3cc(Cl)cc(Cl)c3oc2=O)CC1	-1.9	x	x	x	4
COC(=O)c1cccc(CN2C(=O)SC(Nc3ccccc3)C2=O)c1 (centres undefined)	1.9	x	-16%	x	-9
COC(=O)c1ccc(OC)c(Cn2c(=O)n(C)c(=O)c3ccccc32)c1	-1.1	x	x	x	1
O=[N+]([O-])c1cc(S(=O)(=O)N2CCCCC2)ccc1NCCCN1CCOCC1	1.6	11	-1%	x	-15
C[C@@H]1CCC[C@H](C)N1NC(=O)c1ccc(Cl)c(S(N)(=O)=O)c1	-0.5	6	-16%	-11	2
CN(Cc1ccccc1)S(=O)(=O)c1ccc(NC(=S)NC(=O)C2CCCC2)cc1	x	-16	6%	-16	-7
O=C(NCc1ccncc1)C1CCCN(S(=O)(=O)c2cc(Cl)ccc2Cl)C1 (centres undefined)	1.2	x	x	x	-3
COc1ccccc1/C=N/NC(=O)CCn1cnc2ccccc21	-1.9	-3	-20%	-30	-5
O=c1c(O[C@@H]2O[C@H](CO)[C@H](O)[C@H](O)[C@H]2O)c(-c2ccc(O)c(O)c2)oc2cc(O)cc(O)c12	x	1	9%	x	x
O=C(COc1ccc2ccccc2c1Br)N1CCOCC1	1.2	-2	-8%	5	-8
O=C(NCc1ccc2c(c1)OCO2)c1ccc(Cl)c(S(=O)(=O)N2CCOCC2)c1	0.1	0	-1%	-32	-6
COc1ccc(CCNC(=O)c2ccc(CNc3c(N4CCOCC4)c(=O)c3=O)cc2)cc1OC	-7.3	19	-18%	-5	3
Cc1cccc2cc(CNCc3ccccc3)c(Cl)nc12	x	7	-3%	x	-4
O=C(O)CSc1c(O)c2ccccc2[nH]c1=O	4.4	6	8%	x	9

Part of the list above in order of length of the SMILES, falling.
SMILES	RecA splice inh	Arbovirus inh	Mtb growth	YopH inh	Mtb bLac sens	others
CN(Cc1ccccc1)S(=O)(=O)c1ccc(NC(=S)NC(=O)C2CCCC2)cc1	x	-16	6%	-16	-7
COc1ccccc1N1CCN(C(=O)CCc2nnc3ccc(N4CCOCC4)nn23)CC1	-3.1	x	x	x	2
O=C(COc1ccc2ccccc2c1Br)N1CCOCC1	1.2	-2	-8%	5	-8

Continued.
SMILES	RecA splice inh	Arbovirus inh	Mtb growth	YopH inh	Mtb bLac sens	others
O=C(Nc1ccc(OC(F)(F)F)cc1)c1ccc(S(=O)(=O)N2CCOCC2)o1	-0.9	x	0%	x	3
O=C(c1cccc(Cl)c1)N1CCC(c2nc3ccccc3[nH]2)CC1	-1.8	0	4%	x	-4
O=C(Nc1nc2c(F)cccc2s1)c1ccco1	-1.3	x	x	x	-4
CC1(c2nnc(-c3ccc(Cl)cc3)o2)CC(c2c(Cl)cccc2Cl)=NO1 (centres undefined)	4.4	x	-9%	x	2
Fc1ccccc1-n1c(-c2ccc3ccccc3n2)n[nH]c1=S	1.3	0	8%	x	6
CCOc1ccc(N2C(=O)CC(NCC#N)C2=O)cc1 (centres undefined)	-2.1	x	x	x	3
Cc1ccc(S(=O)(=O)N2CCOCC2)cc1C(=O)NC1CCSc2ccccc21 (centres undefined)	-3.4	x	x	x	-4
CC(C)c1nnc(NC(=O)C2CCN(C(=O)Nc3ccccc3)CC2)s1	0.9	x	x	x	-11
COc1ccc(-c2cn(-c3ccccc3)nc2C(=O)O)cc1OC	-1.7	x	x	x	3
CCN(CC(=O)Nc1c(F)cccc1F)C(=O)Cc1ccc2c(c1)CCC2	-3.2	x	x	x	-6
CNC(=O)C(=O)NCC1CCCN1S(=O)(=O)c1cccs1 (centres undefined)	-1.0	x	x	x	-7
COc1ccc(OC)c2[nH]c(C(=O)N/N=C/c3ccccc3O)cc12	1.5	x	x	x	9
CC(=O)n1cc(/C=N/NC(=O)c2ccc(Cl)cc2)c2ccccc21	-0.2	x	x	x	6
Cc1ccccc1NC(=O)Cc1nc(COC(=O)c2cccc([N+](=O)[O-])c2)cs1	0.8	x	x	x	-14
CCOC(=O)c1nn(-c2ccc(F)cc2)c(-c2ccccc2)c1C(=O)c1ccccc1	4.7	4	-3%	-31	-11
CCOc1cc(C(=O)NCC(=O)N/N=C/c2sccc2C)cc(OCC)c1OCC	1.5	-11	7%	x	4
C[N+]12CN3CN(CN(C3)C1)C2	0.7	-2	-10%	-18	3
Cc1ccc(NC(=S)N(Cc2cccc(Br)c2)CC2CCC(C(=O)O)CC2)cc1Cl (centres undefined)	5.4	-2	-6%	x	-4
COc1ccc(CCNC(=O)CC2SC(N)=NC2=O)cc1OC (centres undefined)	-2.8	16	1%	x	-1
O=C(CNC(=O)c1cccs1)Nc1ccc2c(c1)OCCO2	-1.9	x	x	x	-9
COc1ccc(NC(=O)CN(C)C(=O)Cc2coc3cc(C)c(C)cc23)cc1	-2.8	x	x	x	4
Clc1ccccc1CSc1ncccn1	4.3	1	-2%	-28	-2
CCOC(=O)C1CCN(C(=O)CCCOc2ccccc2)CC1	0.9	14	-4%	16	6
COC(=O)C1=C(N)OC2=C(C(=O)CC(C)(C)C2)C1c1ccccc1OC (centres undefined)	x	-3	x	x	-7
O=C(Nc1ccccc1C(=O)Nc1ccccc1)c1ccccc1F	-1.4	x	x	x	11
CCN(CC(=O)Nc1ccccc1OC)C(=O)c1cc(-c2ccccc2)nn1-c1ccccc1	22	x	x	x	-2
S=C1NC[C@H](c2ccccc2)N1CCCCC1CCCCC1	9.4	x	2%	x	-1
Cc1ccc(NC(=O)N2CCCCCC2)cc1	-2.1	x	x	x	-6
O=C(/C=C/Nc1cccc(C(F)(F)F)c1)c1ccc(Oc2ncccn2)cc1	-4.4	-1	x	-31	3
CCN1CCN(C(=O)c2ccc(C)c(S(=O)(=O)Nc3cccc(C)c3)c2)CC1	-1.0	x	x	x	-21
COc1cc(C2NC(=O)NC(c3ccccc3)=C2C(C)=O)ccc1OCC#N (centres undefined)	3.6	2	-7%	-20	-5
COc1ccc(-c2csc(-c3cccs3)n2)c(OC)c1	-0.4	-3	6%	x	x
O=C(Nc1ccc(-c2nc3ccccc3[nH]2)cc1)c1cccc(N2C(=O)CCC2=O)c1	-2.1	1	0%	-36	4
Cn1c(C(=O)N2CCN(c3ccc(Cl)cc3)CC2)cc2c(=O)[nH]c3ccccc3c21	0.2	1	13%	-40	1
CCCC(=O)Nc1ccccc1-c1nnc(SC)[nH]c1=O	0.6	5	-2%	-48	3	Arbovirus inh repeat=-1
CCC(C)c1ccccc1NC(=O)c1cc2cccc([N+](=O)[O-])c2[nH]1 (centres undefined)	14	x	4%	x	-4
Cc1cc(=O)oc(C)c1C(=O)O	-1.2	4	-1%	-34	u
O=c1cc(-c2c(F)c(F)c(F)c(F)c2F)oc2ccccc12	29	12	0.22µM*	-35	100
O=C(CNC(=O)c1ccc(Br)cc1)NCC(=O)OCC(=O)c1ccccc1	-1.6	-3	-4%	x	3
Cc1cc(NCCCn2ccnc2)n2ncc(-c3ccccc3)c2n1	x	-12	19%	-28	62

The last 7 entries of the part above come first, to join the parts.
SMILES	RecA splice inh	Arbovirus inh	Mtb growth	YopH inh	Mtb bLac sens	others
Cn1c(C(=O)N2CCN(c3ccc(Cl)cc3)CC2)cc2c(=O)[nH]c3ccccc3c21	0.2	1	13%	-40	1
CCCC(=O)Nc1ccccc1-c1nnc(SC)[nH]c1=O	0.6	5	-2%	-48	3	Arbovirus inh repeat=-1
CCC(C)c1ccccc1NC(=O)c1cc2cccc([N+](=O)[O-])c2[nH]1 (centres undefined)	14	x	4%	x	-4
Cc1cc(=O)oc(C)c1C(=O)O	-1.2	4	-1%	-34	u
O=c1cc(-c2c(F)c(F)c(F)c(F)c2F)oc2ccccc12	29	12	0.22µM*	-35	100
O=C(CNC(=O)c1ccc(Br)cc1)NCC(=O)OCC(=O)c1ccccc1	-1.6	-3	-4%	x	3
Cc1cc(NCCCn2ccnc2)n2ncc(-c3ccccc3)c2n1	x	-12	19%	-28	62
Nc1ccc([N+](=O)[O-])cc1C(=O)NNC(=O)c1ccco1	0.2	x	-2%	x	-5
O=C(CC1CCCCC1)Nc1nc2ccccc2s1	-1.7	1	1%	x	-3
CSc1cccc(NC(=O)CC2Oc3ccccc3NC2=O)c1 (centres undefined)	-3.1	x	x	x	-1
Cc1c(Cl)cccc1NC(=S)NCCc1ccc(S(N)(=O)=O)cc1	-0.5	0	10%	-20	-1
COC(=O)C1=CO[C@@H](C)[C@@H]2CN3CC[C@]4(C(=O)Nc5ccccc54)[C@@H]3C[C@H]12	-0.6	-8	-3%	-24	-3
C=CCN(c1ccccc1)S(=O)(=O)c1cccc(C(=O)Nc2cc(C)ccn2)c1	-1.6	x	x	x	0
O=C(NC(Cc1ccccc1)C(=O)NCCc1ccccn1)c1cccs1 (centres undefined)	2.2	x	x	x	-6
CCCN(CC(=O)Nc1ccccc1C)C(=O)c1ccc(S(=O)(=O)N2CCCCC2)cc1	3.1	x	x	x	-5
COc1ccc(C[C@H]2CN3C(=NC[C@@H]3C(C)C)N2CCNC(=O)CCC2CCCCC2)cc1	3.6	22	x	x	6
Nc1ccc(SCC(=O)Nc2cccc([N+](=O)[O-])c2)cc1	0.1	-17	26%	x	-1
Cc1ccc(/C=N/Nc2cc(C)nc(NCc3ccccc3)n2)cc1	8.9	x	-1%	x	73
CCN(CC)S(=O)(=O)c1cc(C(=O)Nc2ccccc2[N+](=O)[O-])ccc1Cl	2.6	4	1%	-15	4
CCCOc1ccc(-c2csc3ncn(Cc4ccc(C(=O)O)cc4)c(=O)c23)cc1	4.1	1	-8%	x	5
CC(C)c1ccc(/C=c2\sc3nc(-c4ccncc4)nn3c2=O)cc1	7.7	7	-10%	-21	27
CCOc1ccc(Nc2nc3c(c(=O)[nH]2)CCCC3)cc1	-1.4	6	0%	-26	-3
Cc1ccc(OCC(=O)NCCCNC(=O)c2cccnc2)cc1C	0.5	x	x	x	-3
CCN(CC(=O)NC(C)C)C(=O)c1ccc(Cl)cc1	-0.8	1	-12%	-13	-4

This is a subset, so the mix of outcomes need not match the whole.
